# High-throughput results deposited in PubChem by PCMD.
# Biofilm kill mix: mixture kills Candida albicans biofilm cells; AID 1242; inhibition, % at 7.6 µM; C. albicans biofilm persisters + clotrimazole, fluorescence viability; primary screen in compound mixtures of four per well; hit rate 0.02% among 120,000;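 active = inhibition above 30.3% in the primary screen of four-compound pools, then above 30% when the compound was retested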;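 also: compounds exposed to preformed 24 h biofilms for 48 h; the number belongs to the whole pool; some results filed as inactive read as strong as hits; inactives centre near 12; 0% = biofilm with clotrimazole alone and 100% = kill control; retested singly at about 60 µM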
#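 Test system: C. albicans CAF4-2 wild-type biofilms; buffer or medium: RPMI/MOPS medium, pH 7.0; schedule: 24 h biofilm formation, then 48 h compound exposure, 37 °C; detection: Alamar Blue fluorescence; measure: percent inhibition of biofilm viability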
# Numbers without * were called inactive. Not all compounds are listed; count on the stated rates, not on these rows.
SMILES | Biofilm kill mix
S=c1[nH]nc(-c2ccncc2)n1/N=C/c1ccccc1Cl | 9.7
Cc1ccsc1/C=N/NC(=O)C(N)=O | 6.0
COc1cccc(C(=O)N[C@@H](CCSC)c2nc3ccccc3[nH]2)c1 | 15.1
O=C(NNC(=O)c1ccccc1C(=O)O)c1ccc(O)cc1 | 5.2
CCOC(=O)Cn1c(=NC(=O)C2COc3ccccc3O2)sc2cc(S(N)(=O)=O)ccc21 (stereo not drawn) | 17.1
CCCCNC(=O)N1c2ccccc2CC1C (stereo not drawn) | 14.8
CS(=O)(=O)c1ccc(C(=O)Nc2ccc(N3CCCC3)cc2)c(Cl)c1 | 11.3
COc1ccc(CCNC(=O)COc2ncnc3cc([N+](=O)[O-])ccc23)cc1 | 6.2
CC1=NOC(=O)/C1=C/c1ccc2c(c1)OCO2 | 10.0
COc1ccc(NC(=O)CCCSc2ccccc2)cc1 | 15.7
Cc1ccccc1OCC(=O)Nc1ccc(Cc2ccncc2)cc1 | 14.1
Cc1cccc(-c2cnn(-c3cccc([N+](=O)[O-])c3)c2N)c1 | 22.3
Cc1ccc(Nc2c(-c3ccccc3)nc3cnccn23)cc1 | 3.7
Nc1nonc1C(=O)N/N=C/c1ccc(-c2cccc(C(=O)O)c2)o1 | 2.8
COc1ccc2nc(NC(=O)/C=C/c3ccc4c(c3)OCO4)sc2c1 | 17.3
Cc1cc2c(cc1C)C(c1cccc([N+](=O)[O-])c1)CC(=O)N2 (stereo not drawn) | 10.8
CCN(CC)CC(O)c1cccn1-c1ccc(CNC(=O)NC(C)C)cc1 (stereo not drawn) | 13.0
Cc1ccccc1OCC(O)CN1CCCCC1 (stereo not drawn) | 14.1
O=c1[nH]oc2cc(Cl)ccc12 | 15.5
Cc1ccccc1CC1S/C(=N/N=C/c2ccco2)NC1=O (stereo not drawn) | 15.5

# 3 entries already listed, sorted by count of non-hydrogen atoms, high to low:
SMILES | Biofilm kill mix
Cc1ccc(Nc2c(-c3ccccc3)nc3cnccn23)cc1 | 3.7
Cc1ccccc1CC1S/C(=N/N=C/c2ccco2)NC1=O (stereo not drawn) | 15.5
CC1=NOC(=O)/C1=C/c1ccc2c(c1)OCO2 | 10.0

# Later entries.
SMILES | Biofilm kill mix
CCCN1CCN(CCCNC(=S)Nc2ccc(F)cc2)CC1 | 1.5
Cc1cc(C)cc(NC(=S)N(Cc2ccc(Br)cc2)Cc2ccc(C(=O)O)cc2)c1 | 3.0
O=C(NCC1CCCN(C(=O)NCc2ccccc2)C1)c1ccc2c(c1)OCO2 (stereo not drawn) | 11.0
Cc1[nH]c2ccccc2c1C(=O)CSc1nccc(=O)[nH]1 | 13.8
COc1ccc(C(=O)Oc2cc3c4c(c2)C(C)=CC(C)(C)N4C(=O)C3=O)cc1OC | 10.9
Cc1ccc(NC(=O)N(CCC#N)Cc2ccccc2)cc1 | 19.5
Fc1ccc(Cn2cc(C(=S)N3CCOCC3)c3ccccc32)cc1 | 30.4
Fc1ccc(NC(=S)NCCc2ccccn2)cc1 | -4.4
Brc1ccc(COn2ccnc2)cc1 | 14.0
C/C(=N\OC(=O)C1CC1)C1CC1c1ccc(F)cc1 (stereo not drawn) | 5.1
CC(C)(C)c1csc(NC(=O)c2ccncc2)n1 | 6.7
O=C(CCOc1ccccc1F)N1CCN(c2ccccc2O)CC1 | 2.7
Cn1c(=O)c([N+](=O)[O-])c(-n2cnc3ccccc32)c2ccccc21 | 22.2
CCC(=O)/C=C1/Sc2ccccc2N1CC | -5.7
CN(CC(=O)Nc1ccc(F)cc1)C(=O)COc1ccc(C(=O)c2ccccc2)cc1 | 4.5
CC(C)OC(=O)CSc1nnc(CNc2ccc(Cl)cc2)n1C | 18.1
Cc1cc(-c2nnc(CCC(=O)N(C)C(C)c3cccs3)o2)no1 (stereo not drawn) | 25.3
Cn1cnnc1SCC(=O)Nc1ccc(N2CCOCC2)cc1 | 1.3
Cc1c(C(=O)c2ccc([N+](=O)[O-])cc2)c(=O)n(C)c(=O)n1C | 10.9
Cc1nc2ccccn2c1C(=O)Nc1ccc(Cl)cc1 | 16.0
COc1cnc(SC(C)C)[nH]c1=O | 13.3
CC(C)C(=O)NNC(=O)c1ccccn1 | 15.1
Cc1cccc(C(=O)NC(C(=O)Nc2ccccc2N2CCOCC2)C(C)C)c1 (stereo not drawn) | 16.0
CCC(c1ccccc1)c1nc(-c2cccnc2)no1 (stereo not drawn) | 15.4
N#C/C(=C\C=C\c1ccccc1[N+](=O)[O-])C(=O)NC1CCCCC1 | 12.8
O=C(CCS(=O)(=O)c1ccc(Br)cc1)Nc1ccc(Br)cc1F | -11.2
COc1ccc(OCC(=O)Nc2ccc(N3CCN(C(=O)c4ccco4)CC3)cc2)cc1 | 17.1
CCN(CC)c1ccc2c(O)cc(=O)oc2c1 | 12.8
COc1cc(OC)c(S(=O)(=O)NC(C)C)cc1C(=O)O | 19.4
CCOc1ccc(-c2cnc3ccccc3n2)cc1 | 18.7
COc1cc(/C=C/C(=O)OCC(=O)NC(=O)NC(C)C)cc(OC)c1OC | 10.5
Cc1ccc(NC(=O)c2c(NC(=O)CCC(=O)O)sc3c2CCCCC3)cc1 | 23.9
CCNC(=S)Nc1cccc(S(=O)(=O)Nc2ccccc2OC)c1 | 22.5
COc1ccc(C2CC(c3ccccc3)=NN2C(=O)COC(=O)c2cnc(Cl)c(Cl)c2)cc1 (stereo not drawn) | 8.9
O=C(N/N=C/c1ccc(Br)s1)c1ccco1 | 4.7
Cc1ccc(-n2ncc3c(SCC(=O)Nc4cc(C)on4)ncnc32)c(C)c1 | 17.4
O=C(CCCCCNC(=O)c1ccccc1)N/N=C/c1ccccc1 | 5.2
CCOc1cc(/C=C(\C#N)C(=O)NCc2cccnc2)ccc1O | 11.8
CN(C)CCCNC(=O)c1ccccc1Oc1ccccc1 | 5.8
COCC(C)NC(C(=O)Nc1ccc(Cl)c([N+](=O)[O-])c1)c1ccccc1 (stereo not drawn) | 10.4

# Individual results from above.
# For Biofilm kill mix, CN(C)CCCNC(=O)c1ccccc1Oc1ccccc1 has the entry 5.8
# For Biofilm kill mix, Cc1ccc(-n2ncc3c(SCC(=O)Nc4cc(C)on4)ncnc32)c(C)c1 has the entry 17.4

# (continued)
SMILES | Biofilm kill mix
CCc1ccc(C(=O)/C=C/Nc2ccc(S(=O)(=O)Nc3onc(C)c3C)cc2)cc1 | 13.5
Cn1ncc(Cl)c1C(=O)N/N=C/c1ccccn1 | 18.1
Cc1ccc(CN2CCC(c3cc(-c4cccs4)n[nH]3)CC2)cc1 | -9.5
COc1cccc(C2(c3cccc(OC)c3)CC2C(=O)Nc2cccc3ccccc23)c1 (stereo not drawn) | 10.7
CCn1nnnc1NC(=O)c1ccc2ccccc2c1 | 1.5
O=C(c1ccc(COc2ccccc2Br)cc1)N1CCCCCC1 | 1.3
Cc1scc(C(=O)N/N=C/c2ccc(Cl)s2)c1C | 8.6
O=S(=O)(Cc1cc(-c2ccccc2Cl)no1)c1ccccc1 | 13.0
Cc1ccc(NC(=O)CNc2ccc(OC(C)C)cc2)c(C)c1 | 5.0
Nc1nc2nc(-c3cccs3)cc(C(F)(F)F)n2n1 | 9.5
CCN1CCCC1CNC(=O)C(=O)NCCc1ccc(OC)c(OC)c1 (stereo not drawn) | 0.1
COc1ccc(OC)c(Nc2nc(NCCC(C)C)nc(N)c2[N+](=O)[O-])c1 | 24.7
Cc1ccc(N(C(=O)CCl)C(C(=O)NC2CCCCC2)c2cccnc2)cc1C (stereo not drawn) | 17.1
N#Cc1cncc(-c2ccc3c(c2)OCCOCCOCCOCCOCCO3)n1 | 12.6
CCN(CC)c1ccc(C(=O)N/N=C(\C)c2cccc(OC)c2)cc1 | 14.0
CCN(CC)c1ccc(/C=N/NC(=O)Cc2cccs2)cc1 | 17.8
Cc1ccc(N(Cc2cc3cc(C)ccc3[nH]c2=O)S(=O)(=O)c2ccccc2)cc1 | 9.2
Cc1ccc(-c2nnc(SCC(=O)N/N=C/c3ccccc3C(=O)O)n2-c2ccccc2)cc1 | 10.9
N#Cc1c(N)n(-c2cccc(C(=O)O)c2)c2nc3ccccc3nc12 | 16.4
O=C(Cn1ncc2c3ccccc3n(Cc3ccccc3)c2c1=O)NCc1ccco1 | 26.7
c1ccc2c(c1)CSc1sccc1C2=C1CCNCC1 | 16.9
Cc1cccc(NC(=S)Nc2ccccn2)c1C | 18.5
Cc1cccc(NC(=O)Cn2c(=O)n(C)c3ccccc32)c1 | 14.3
CCOC(=O)c1cc2c(=O)n3ccccc3nc2n(C(C)C)c1=NC(=O)c1c(-c2c(F)cccc2Cl)noc1C | 7.3
COc1ccc(C(=O)NC(=S)NNC(=O)COc2ccccc2)cc1 | -27.5
COc1cccc(C2C3=C(N=c4s/c(=C\c5ccc(OCC(=O)O)cc5)c(=O)n42)c2ccccc2CC3)c1 (stereo not drawn) | 23.5
Cc1ccccc1NC1=C(Cl)C(=O)OC1OC(=O)c1ccccc1C (stereo not drawn) | -0.2
CC(/C=C1\SC(=S)N(CCC(=O)Nc2nc(C)cs2)C1=O)=C\c1ccccc1 | 13.9
CC(C)(C)C(=O)Nc1c(Cl)cccc1OC(F)(F)F | 24.7
COc1ccc(N(CC(=O)NCCSCc2ccco2)S(=O)(=O)c2ccccc2)cc1 | 17.1
c1ccc(Nc2nc(CSc3ncn[nH]3)cs2)cc1 | 1.4
CC(C)Oc1cccc(C(=O)C2CCCN(S(C)(=O)=O)C2)c1 (stereo not drawn) | 11.3
COC(=O)c1cc(Cl)cc(Cl)c1OS(=O)(=O)N(C)C | 7.2
COc1ccc(NC(=O)c2cccc(OS(=O)(=O)N(C)C)c2)cc1 | 11.5
c1ccc2[nH]c(C3CC3)nc2c1 | 11.3
CCN1CCN(Cc2ccc(NC(=O)c3ccc(C)c(NC(=O)C4=NN(c5ccccc5)C(=O)C4)c3)cc2C(F)(F)F)CC1 | 13.6
CCOC(=O)c1ccc(NC(=O)Cc2coc3cc4c(cc23)CCC4)cc1 | 12.7
COc1ccc(NN=Nc2nc3c([nH]2)c(=O)n(C)c(=O)n3C)cc1 | 13.7
CCCOc1ccc(NCC(=O)Nc2ccc(C)cc2C)cc1 | 4.8
Cc1ccc(N/N=C/c2ccc3c(c2)OCCO3)cc1Cl | 4.5
CCC(C)[C@@H](C(=O)N1CCNCC1)n1cc(CCCN=C(N)N)nn1 (stereo partly drawn) | 7.5
O=C(CCSc1nnc(-c2ccncc2)o1)Nc1cccc2ccccc12 | 12.8
O=C(COC(=O)c1ncc(Cl)c(Cl)c1Cl)NC(=O)NCc1ccccc1 | -0.1
O=C(/C=C/c1cccc([N+](=O)[O-])c1)NCCSCc1ccc(Cl)cc1Cl | 22.9
OCCN1CCN(c2ncnc3sc(-c4ccccc4)cc23)CC1 | 3.7
CN(C)c1ccc(C(CNS(=O)(=O)c2ccc(F)c(F)c2)c2c[nH]c3ccccc23)cc1 (stereo not drawn) | 14.4
COc1ccccc1NC(=O)CSc1nnc(CCC(=O)Nc2ccccc2F)n1C | -11.1
COCCOC(=O)c1c(C)oc2ccc(NS(=O)(=O)c3cccs3)cc12 | 13.6
C=CCOC(=O)/C(=C\C=C\c1ccccc1)NC(=O)c1ccccc1 | 9.6
COc1ccc(OCCC(=O)OCC(=O)Nc2cccc(Br)c2)cc1 | 10.4
Cc1c(C=O)c2ccccc2n1CC(=O)O | 21.9
S=C(Nc1cccc(Br)c1)c1ccccc1 | 4.1
Nc1ncnc2c1ncn2Cc1ccccc1 | 6.9
CCc1ccc(NC(=S)/N=C(\N)Nc2nc(C)c3cc(CC)ccc3n2)cc1 | 4.5
Cc1c(C(=O)NCCO)sc2nc3n(c(=O)c12)CCC3 | 12.2
O=C(NNC(=O)c1c(F)cccc1F)c1sccc1-n1cccc1 | 6.8
CC(=O)c1cccc(NC(=O)COC(=O)COc2ccc(Cl)cc2)c1 | 0.8
O=S(=O)(Nc1ccc(Cl)cc1)c1ccc(N2CCOCC2)c(NC(=S)NC2CC2)c1 | 9.6
COCCCN(C(=S)NC(=O)C(C)(C)C)c1c(N)n(Cc2ccccc2)c(=O)[nH]c1=O | 14.7
O=C(COC(=O)c1ccc(NS(=O)(=O)c2ccc(Br)s2)cc1)NC1CCCC1 | 7.4

# Next section
SMILES | Biofilm kill mix
NS(=O)(=O)c1cccc(NC(=O)COC(=O)c2cc(Cl)ccc2[N+](=O)[O-])c1 | 19.1
Cc1c(C(=O)O)sc2nc(SCC(=O)Nc3ccc(S(=O)(=O)NCCCC(=O)O)cc3)[nH]c(=O)c12 | 2.8
O=C(COc1ccccc1)Nc1ccncc1 | 5.0
C=CCN1C(=O)C(O)(CC(=O)c2ccccn2)c2ccccc21 (stereo not drawn) | 12.9
Clc1ccccc1CSC1=NCCN1 | 8.0
N=C1C(c2ccccc2)=C(O)CN1CCO | 6.3
CC(=O)C1=C(NC(=O)c2ccc(C(F)(F)F)cc2)C[C@@H]2[C@H]1C2(C)C | 18.8
CCOC(=O)C(=O)c1c(C)cc2ccccn12 | 9.5
O=[N+]([O-])c1c(N2CCN(CCO)CC2)nc2ccccn12 | 14.6
CC(C)c1nnc(NC(=O)CCC(=O)NC2CCCc3ccccc32)s1 (stereo not drawn) | 12.3
Cc1ccc2c(c1)N(CC(=O)NCc1cccnc1)C(=O)CO2 | 13.6
CC(=O)c1ccc(C(=O)N2CCc3c([nH]c4ccccc34)C2c2ccccn2)s1 (stereo not drawn) | 9.5
CC(NC(=O)COc1ccc([N+](=O)[O-])cc1)c1ccccc1 (stereo not drawn) | 6.0
Cc1cc(NC(=O)c2n[nH]c(=O)c3ccccc23)ccc1Br | 16.9
CCc1ccc(C(=O)COC(=O)c2nn(C)c(=O)c3ccccc23)cc1 | 10.9
O=C(NNC(=O)C1CC=CCC1C(=O)O)c1ccc(Cl)cc1 (stereo not drawn) | 11.3
Cn1nc(C(F)(F)F)cc1Oc1ncc(C(F)(F)F)cc1Cl | 14.1
CCOC(=O)c1c(Cl)c(C)nn1-c1nc(OC)cc(OC)n1 | 16.9
Cc1ccc(-c2n[nH]c(=S)n2/N=C/c2cccs2)cc1 | 4.8
O=C(NC(=S)N1CCN(c2ccc(F)cc2)CC1)C12CC3CC(CC(C3)C1)C2 | 13.8
